KCNQ2 inh: KCNQ2 channel blockers in CHO-K1 cells – cell-based, FluxOR thallium flux, B-score, primary screen (AID 2156); O88943; 20 min; active compounds read low; only compounds with negative scores are shown here; some inactives read as strong as hits; B-score at 10 µM; 310,000 tested, 1.1% active;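 active means fluorescence ratio B-score at most minus 3 library SDs, with starting brightness B-score within 2 library SDs, cut at about -5.5 in these data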
Target sequence (O88943 whole entry, looked up): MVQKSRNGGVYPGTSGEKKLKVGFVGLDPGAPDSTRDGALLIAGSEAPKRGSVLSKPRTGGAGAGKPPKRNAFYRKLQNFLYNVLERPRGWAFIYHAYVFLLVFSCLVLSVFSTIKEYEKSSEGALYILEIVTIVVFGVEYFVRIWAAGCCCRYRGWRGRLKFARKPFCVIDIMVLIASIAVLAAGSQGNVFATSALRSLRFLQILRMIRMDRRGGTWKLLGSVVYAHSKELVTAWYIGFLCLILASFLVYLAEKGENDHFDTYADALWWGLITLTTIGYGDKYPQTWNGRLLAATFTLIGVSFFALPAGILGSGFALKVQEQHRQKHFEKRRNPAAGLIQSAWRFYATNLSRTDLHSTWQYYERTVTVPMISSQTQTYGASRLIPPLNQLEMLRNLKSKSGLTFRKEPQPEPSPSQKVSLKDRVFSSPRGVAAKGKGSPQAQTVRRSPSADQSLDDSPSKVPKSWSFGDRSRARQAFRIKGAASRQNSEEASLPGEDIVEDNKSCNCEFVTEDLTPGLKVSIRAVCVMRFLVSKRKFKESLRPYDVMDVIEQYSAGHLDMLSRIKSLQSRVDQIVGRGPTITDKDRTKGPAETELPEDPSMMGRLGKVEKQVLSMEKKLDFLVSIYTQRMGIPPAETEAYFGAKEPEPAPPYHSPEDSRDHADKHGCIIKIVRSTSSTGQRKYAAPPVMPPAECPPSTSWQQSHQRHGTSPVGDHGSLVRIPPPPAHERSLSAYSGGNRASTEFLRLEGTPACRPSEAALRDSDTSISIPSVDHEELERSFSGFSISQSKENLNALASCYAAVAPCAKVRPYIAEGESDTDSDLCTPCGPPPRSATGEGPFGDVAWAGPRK
KCNQ2 inh baseline: recorded beside KCNQ2 inh, whose call it bears; B-score; measured here: initial fluorescence intensity artifact check;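 brightness before thallium and not channel activity; 0 = typical well and far values either way flag optical interference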
Active calls of the source: *; i = inactive. Some of the compounds tested, so the mix of outcomes need not match the whole.

Every second line gives: KCNQ2 inh baseline, KCNQ2 inh
> CN(C)S(=O)(=O)c1ccc(C(=O)NCC(=O)N/N=C/c2cccs2)cc1
    1.98, i
> C[C@@]12CCC=C[C@H]1[C@H](c1ccc(/C=C/c3ccccc3)cc1F)N(Cc1ccccc1)C2=O
    -1, i
> CC1CCN(S(=O)(=O)N2CCCC(C(=O)NCc3ccc(F)cc3)C2)CC1 (stereo not drawn)
    -0.11, i
> CCOC(=O)[C@@H]1[C@H]2COc3ccc(Br)cc3[C@@H]2N2C(=O)N(c3ccc(F)cc3)C(=O)[C@]12C
    0.01, i
> CC(SCc1ccccc1)C(=O)N/N=C/c1ccc2c(c1)OCO2 (stereo not drawn)
    1.31, i
> COc1ccc(N2CCN(C(CNC(=O)C(=O)NC3CC3)c3ccco3)CC2)cc1 (stereo not drawn)
    1.26, i
> Cc1cccc(N2CC(C(=O)Nc3ccc(S(=O)(=O)Nc4nccs4)cc3)CC2=O)c1C (stereo not drawn)
    -3.37, i
> N#C/C(=C\c1ccc(OCc2ccccc2)cc1)C(=O)Nc1ccc(C(=O)O)cc1
    0.71, i
> Cc1cc(C)cc(C(=O)NC(=S)Nc2ccc(Cc3ccncc3)cc2)c1
    1.83, i
> CCn1nc(C(=O)NNC(=O)COc2ccccc2C)c2ccccc2c1=O
    -0.06, i
> O=C(CN1C(=O)NC2(CCOc3ccccc32)C1=O)c1ccc(F)c(F)c1 (stereo not drawn)
    -0.8, i
> COC(=O)C(Cc1ccccc1)NCC(=O)Nc1cccc(Cl)c1C (stereo not drawn)
    -0.95*, -8.17*
> O=C(NCc1ccc2c(c1)OCO2)c1ccc(NC(=O)C2CCCO2)cc1 (stereo not drawn)
    -0.73, i
> C[C@H](NC(=O)Nc1cccc(Br)c1)C(=O)O
    0.21, i
> Cc1[nH]c(C)c2c(=O)[nH]ncc12
    1.46, i
> O=C(CN1C(=O)NC2(CCCC2)C1=O)NNC(=O)c1ccccc1
    1.41, i
> O=C(C[n+]1ccccc1)N/N=C/c1ccccc1[N+](=O)[O-]
    0.08, i
> CCOC(=O)N1CCN(Cc2nc3ccc([N+](=O)[O-])cc3c(=O)n2-c2ccc(OC)cc2OC)CC1
    -0.01, i
> CC(=C\c1ccco1)/C=C(\C#N)C(=O)NCCc1c[nH]c2ccccc12
    -0.73, i
> N#Cc1ccc(OCC(O)CN2CCC(C(O)(c3ccccc3)c3ccccc3)CC2)cc1 (stereo not drawn)
    0.62, i
> COc1ccc(C(C)=O)cc1CC(=O)NCCCn1ccnc1
    0.78, i
> OCC[C@@H]1C[C@@H](O)[C@H](O)[C@]2(OCCCc3ccccc32)O1
    -1.29, i
> Nc1nc(-c2ccccc2)cs1
    -1.56, i
> O=C(CCc1ccccn1)N1CCCC(N2CCN(c3cccc(C(F)(F)F)c3)CC2)C1 (stereo not drawn)
    -1.13, i
> CCOc1ccccc1N(CC(=O)NC1CCCCC1)C(=O)c1nsc(Cl)c1Cl
    0.83, i
> NNc1nc(-c2ccccc2)nc2sc3c(c12)CCCC3
    0.95, i
> COc1ccc(Cl)cc1NC(=S)N1CCCC1
    -0.82, i
> COc1ccc(CCNC(=O)c2ccc(CS(=O)(=O)c3ccc(Cl)cc3)o2)cc1OC
    2.7, i
> Cc1[nH]c2ccccc2c1SCC(=O)N1CCCCC1
    -0.53, i
> CCN1CCN(CCNC(=O)Nc2ccc([N+](=O)[O-])cc2)CC1
    -2.53, i

Ordered by number of heavy atoms (high to low): part of the list above.
Every second line gives: KCNQ2 inh baseline, KCNQ2 inh
> CCOC(=O)[C@@H]1[C@H]2COc3ccc(Br)cc3[C@@H]2N2C(=O)N(c3ccc(F)cc3)C(=O)[C@]12C
    0.01, i
> O=C(CN1C(=O)NC2(CCCC2)C1=O)NNC(=O)c1ccccc1
    1.41, i
> CCN1CCN(CCNC(=O)Nc2ccc([N+](=O)[O-])cc2)CC1
    -2.53, i

(cont.)
Every second line gives: KCNQ2 inh baseline, KCNQ2 inh
> Cc1ccccc1C(=O)NCCCn1ccnc1
    0.04, i
> O=C(C1=C[C@@H]2[C@H]3C(=O)N(c4ccccc4)C(=O)[C@H]3[C@@H](C(=O)c3ccc(Cl)cc3)N2C=C1)c1ccccc1
    -0.21, i
> C=CCNc1c2c(nc3ncnn13)CC(C)CC2 (stereo not drawn)
    0.02, i
> CC1CCN(S(=O)(=O)c2ccc3c(c2)oc(=O)n3C)CC1
    -0.02, i
> O=C(CCN1C(=O)/C(=C/c2ccccc2)SC1=S)N1CCCCCC1
    0.5, i
> COCCN(C(=O)CSc1nc2ccc(OC)cc2[nH]1)c1c(N)n(Cc2ccccc2)c(=O)[nH]c1=O
    -1.55, i
> O=C(Nc1nnc(-c2ccccc2Cl)s1)c1ccccc1F
    -0.93, i
> COc1cc2cc(Oc3ccc4ccc(=O)oc4c3)c(=O)oc2cc1OC(=O)C=C(C)C
    -0.53, i
> COc1ccc(OC)c(NC(=O)CSc2nc(N)c(-c3ccccc3)c(=O)[nH]2)c1
    -0.08, i
> NS(=O)(=O)c1ccc(-c2ccc(/C=C3\SC(=S)N(C4CCS(=O)(=O)C4)C3=O)o2)cc1 (stereo not drawn)
    -0.03, i
> Cc1ccc2[nH]c(=O)c(CN(CC3CCCO3)S(=O)(=O)c3cccc4nsnc34)cc2c1 (stereo not drawn)
    1.03, i
> CCCCOc1cccc(C2C(C(=O)c3ccc(C)o3)=C(O)C(=O)N2c2nnc(C)s2)c1 (stereo not drawn)
    9.65, i
> COc1ccc(N2CCN(C(=O)CSc3ccccc3)CC2)cc1
    -1.18, i
> COc1nc(C)cc(C)c1S(=O)(=O)c1ccccc1C
    -0.56, i
> CCc1ccc2[nH]c(=O)c(CN(CCCN3CCOCC3)C(=O)Nc3ccccc3)cc2c1
    0.47, i
> CCn1cc(CN2CCc3c([nH]c4ccccc34)C2c2ccc(F)c(OC)c2)c(C)n1 (stereo not drawn)
    -0.29, i
> FC(F)(F)c1cccc(Cn2nnnc2-c2ccc(Cl)cc2)c1
    0.22, i
> Cc1ccc(S(=O)(=O)N(C)CC(=O)Oc2ccc(-c3nnco3)cc2)cc1
    2.93, i
> CC(NC(=O)[C@H](C)NC(=O)[C@@H]1CSC2c3ccccc3C(=O)N21)c1ccccc1 (stereo partly drawn)
    0.76, i
> CC(=O)Nc1ccc(S(=O)(=O)N(C)CC(=O)OCC(=O)N(C)c2ccccc2)cc1
    0.29, i
> O=C(NC(=S)Nc1ncccn1)c1ccccc1Br
    0.1, i
> CCOC(=O)C(=O)Nc1cccc(C(=O)OCC)c1
    0.03, i
> Cc1ccc(S(=O)(=O)N2CCCN(S(=O)(=O)c3ccc(C(F)(F)F)cc3)CC2)cc1
    -0.4, i
> CCC1(C)C(Nc2c(C)cccc2C)=NC(=S)N1c1ccc(NC(C)=O)cc1 (stereo not drawn)
    0.64, i
> Cc1ccc(N(C(C)C(=O)Nc2c(C)n(C)n(-c3ccccc3)c2=O)S(C)(=O)=O)cc1C (stereo not drawn)
    0.82, i
> O=C(Nc1ccc(Cl)cn1)c1ccccc1[N+](=O)[O-]
    -1.66, i
> CCC(c1nnnn1CCOC)N1CCN(Cc2ccccc2)CC1 (stereo not drawn)
    -0.38, i
> Cc1cc(C(=O)CSc2ccc(Cl)cc2)cc(C)c1OC(=S)N(C)C
    -0.24*, -8.68*
> COc1ccccc1CC(=O)N1CCN(C(=O)c2ccco2)CC1
    -0.64, i
> Cc1ccccc1N1CCN(C(=O)C2CCC(=O)N(C3CCCC3)C2)CC1 (stereo not drawn)
    -1.23, i
> Oc1ccc2ccccc2c1CNc1ccc(Br)cc1
    -1.41, i
> CS(=O)(=O)N(CC(=O)N1CCCCCC1)c1cccc(F)c1
    -1.04, i
> O=[N+]([O-])c1ccccc1CNc1ccc(F)c(Cl)c1
    1.3, i
> COc1cc(Nc2c3ccccc3nc3ccccc23)cc(OC)c1OC
    -0.71, i
> COc1ccc(C)cc1NC(=O)CSCc1ccccc1C
    0.03, i
> O=C(CCN1C(=O)COc2ccccc21)NCc1ccco1
    -0.08, i
> CCCN1CCC(NC(=O)CC2C(=O)NCCN2Cc2cccc(OC)c2)CC1 (stereo not drawn)
    -3.12, i
> S=C1NCN(Cc2ccco2)CN1Cc1ccco1
    0.16, i
> O=C(Nc1ccc2c(c1)OCO2)C1CCCN(c2nc3ccccc3s2)C1 (stereo not drawn)
    -1.01, i
> O=C(CN1CCCC1)N/N=C/c1c(O)ccc2ccccc12
    0.62, i
> CCCCN(C)Cc1cc(=O)oc2cc3c(cc12)CCCC3
    -1.47, i
> COC(=O)C1=C(C(=O)OC)[C@@H]2N(C)c3ccc(OC)cc3[C@@]23C[C@@H](C(=O)OC)N(C(=O)c2cccs2)C3=N1
    0.81, i
> COc1ccc(Oc2nc(-c3ccccn3)ncc2OC)cc1
    3.98, i
> COc1ccc2nc(NC(=O)c3ccc([N+](=O)[O-])o3)sc2c1
    0.39, i
> COc1ccc(C2C(C#N)=C(C)NC3=C2S(=O)(=O)c2ccccc23)cc1 (stereo not drawn)
    0.73, i
> Cn1c(=O)c(C(=O)NCCCc2ccccc2)c(O)c2ccccc21
    0.07, i
> Cc1nnc(NC2(C(F)(F)F)C(=O)Nc3c2c(=O)n(C)c(=O)n3C)s1 (stereo not drawn)
    1.04, i
> O=c1[nH]c(C(Cl)Cl)nc2sc3c(c12)CCN(Cc1ccccc1)C3
    3.66, i
> C[C@@H](C(=O)NCc1ccccn1)[C@H]1C[C@]1(C)[C@H](NC(=O)OCc1ccccc1)c1ccccc1
    0.28*, -6.68*
> O=S(=O)(c1ccccc1Cl)N1CCCC1c1nc(-c2ccc(Cl)cc2)no1 (stereo not drawn)
    -0.64, i
> CCOC(=O)c1c(NC(=O)CC)sc(C(=O)NC2CCCC2)c1C
    -0.68, i
> O=C(Cn1nc(C(=O)O)c2ccccc2c1=O)NCc1ccco1
    0.66, i
> COc1ccc(N(CC(=O)N2CCN(c3cc(C)ccc3C)CC2)S(=O)(=O)c2c(C)noc2C)cc1
    0.01, i
> Cc1ccc(S(=O)(=O)N2CCCC2C(=O)n2nc(C)cc2C)cc1 (stereo not drawn)
    -0.5, i
> O=C(Nc1cnn(Cc2ccc(F)cc2)c1)C(c1ccccc1)c1ccccc1
    0.66, i
> CCn1c(SCC(=O)OC)nnc1-c1ccccc1
    0.31, i
> COc1ccc(Cl)cc1C(=O)NCCc1ccc(S(=O)(=O)NC(=O)NC2CCCCC2)cc1
    0.08, i
> C=CCc1cc(Cl)ccc1OCCNCCN1CCOCC1
    -0.47, i
> Cc1nn(C(C)C(=O)NCc2ccccc2Cl)c(=O)c2c1sc1ccccc12 (stereo not drawn)
    -1.52*, -7.8*
> CCOC(=O)c1c(-c2cccc3ccccc23)csc1NC(=O)C1C2CCC(O2)C1C(=O)O (stereo not drawn)
    -0.83, i

Following part
Every second line gives: KCNQ2 inh baseline, KCNQ2 inh
> CC(C)c1nc(SCC(=O)Nc2ccc3c(c2)OCCO3)c2c(=O)n(C)c(=O)n(C)c2n1
    0.04, i
> CCOC(=O)N1CCN(C(=O)c2cnsn2)CC1
    1.05, i
> CCC(=O)c1cn(CC(=O)Nc2cccc(OC)c2)c2ccccc12
    0.78, i
> CC1(OC(=O)CCc2ccccc2)C(=O)C=C2C=C(c3ccc(C#N)cc3)N(C3CCCCC3)C=C2C1=O (stereo not drawn)
    -0.04, i
> CCC(C)(C)NC(=O)C(c1ccco1)N(C(=O)c1csnn1)c1cccc(F)c1 (stereo not drawn)
    0.5, i
> Brc1ccc(-c2noc(COc3ccc4c(c3)CCC4)n2)o1
    -0.37, i
> CC1(C)CC(=O)C=C(Nc2ccccc2N)C1
    -0.4, i
> CCCc1ccc(OC(=O)c2ccc(O)cc2Cl)cc1
    -0.36, i
> N#Cc1cccc(NC(=O)NCCc2c[nH]c3ccccc23)c1
    -0.54, i
> CN(NC1OC(=O)c2ccccc21)c1ncc(C(F)(F)F)cc1Cl (stereo not drawn)
    0.68, i
> c1ccc(CSc2ncnc3ccccc23)cc1
    -0.01, i
> Cc1cc(C)nc(N/N=C/c2cccc([N+](=O)[O-])c2)n1
    0.05, i
> COc1ccc(-n2c(Cc3cccn3C)nnc2SCC(=O)Nc2cccc(F)c2)cc1
    -0.19, i
> OC(CCc1ccncc1)c1ccccc1 (stereo not drawn)
    -0.42, i
> CC(C)(C)[C@@H]1C=C(C(=O)NC2CC2)O[C@H](OCc2ccc(CO)cc2)C1
    -0.62, i
> O=c1c2ccccc2c(/C=N/NS(=O)(=O)c2ccccc2)c(O)n1-c1ccccn1
    0.53, i
> CCOC(=O)C(=O)N(Nc1ccc(C)cc1)c1ccc(C)cc1
    -0.73, i
> Cc1ccc(N2C(=O)Nc3ccccc3C2(O)C(=O)NCCCOC(C)C)cc1C (stereo not drawn)
    0.19, i
> CCCNC(=O)COc1coc(CN2CCN(c3ccccc3)CC2)cc1=O
    -1.4, i
> Cc1oc(-c2cccs2)nc1CN1CCC(CO)(CCOc2ccccc2)CC1
    1.52, i
> Cc1cc(C)cc(NC(=O)Cc2ccc(-n3cccc3)cc2)c1
    -0.8, i

A different layout for six compounds above:
KCNQ2 inh baseline,KCNQ2 inh,canonical_smiles
0.53,i,O=c1c2ccccc2c(/C=N/NS(=O)(=O)c2ccccc2)c(O)n1-c1ccccn1
0.5,i,CCC(C)(C)NC(=O)C(c1ccco1)N(C(=O)c1csnn1)c1cccc(F)c1 (stereo not drawn)
0.04,i,CC(C)c1nc(SCC(=O)Nc2ccc3c(c2)OCCO3)c2c(=O)n(C)c(=O)n(C)c2n1
-0.73,i,CCOC(=O)C(=O)N(Nc1ccc(C)cc1)c1ccc(C)cc1
0.68,i,CN(NC1OC(=O)c2ccccc21)c1ncc(C(F)(F)F)cc1Cl (stereo not drawn)
-0.62,i,CC(C)(C)[C@@H]1C=C(C(=O)NC2CC2)O[C@H](OCc2ccc(CO)cc2)C1
